# ClpP mod: qHTS Assay for Activators of ClpP. Potency, µM (titrated, usually from 57.5 µM), inactives show at the highest dose activity change, negative = active. ATP-dependent Clp protease proteolytic subunit (Bacillus subtilis (strain 168)), P80244. AID 651965, 2013. purified B. subtilis ClpP, FRET peptide cleavage, 20 min. 1.9% of 340,000 active; active = well fitted falling curve with a large enough effect; inconclusive = small, poorly fitted or top-dose-only effect; inactive = no such curve, though single readings can be large or run the other way; note: potency is the fitted concentration of half-maximal effect; the source files actives as falling curves though it sought activators and does not explain the sign; nearly all actives have a fitted effect of over 65% in size; many hits overshoot -100%
# Target sequence (P80244 whole entry, looked up): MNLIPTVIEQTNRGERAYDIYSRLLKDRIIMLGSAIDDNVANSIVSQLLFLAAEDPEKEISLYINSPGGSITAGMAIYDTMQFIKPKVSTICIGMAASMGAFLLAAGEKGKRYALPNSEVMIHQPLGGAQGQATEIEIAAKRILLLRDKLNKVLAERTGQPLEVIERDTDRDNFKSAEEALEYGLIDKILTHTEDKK
#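 Purified B. subtilis ClpP, 10 microg/mL final in Tris/HCl pH8 with KCl, BSA, glycerol and Tween-20, cleaved an Abz/nitrotyrosine-quenched decapeptide. Fluorescence (ex 320, em 430) was read at 0 and 20 min at room temperature. Delta was normalized to 5.8 microM ADEP and DMSO/no-enzyme controls.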
# TRPML1 ag: activates the human TRPML1 channel. Q9GZU1. TRPML1-expressing cells, Ca2+ dye fluorescence, FDSS; host cell line not named in the record; reference of the full effect not given here. activation, % (no concentration beside the values). 0.12% of 410,000 active; in the data active = activation above about 50%; inconclusive = about 30% to 50%; inactive = below about 30%; note: 0% is about no effect; the text of the record puts the active cut at 80%
# Target sequence (Q9GZU1 whole entry, looked up): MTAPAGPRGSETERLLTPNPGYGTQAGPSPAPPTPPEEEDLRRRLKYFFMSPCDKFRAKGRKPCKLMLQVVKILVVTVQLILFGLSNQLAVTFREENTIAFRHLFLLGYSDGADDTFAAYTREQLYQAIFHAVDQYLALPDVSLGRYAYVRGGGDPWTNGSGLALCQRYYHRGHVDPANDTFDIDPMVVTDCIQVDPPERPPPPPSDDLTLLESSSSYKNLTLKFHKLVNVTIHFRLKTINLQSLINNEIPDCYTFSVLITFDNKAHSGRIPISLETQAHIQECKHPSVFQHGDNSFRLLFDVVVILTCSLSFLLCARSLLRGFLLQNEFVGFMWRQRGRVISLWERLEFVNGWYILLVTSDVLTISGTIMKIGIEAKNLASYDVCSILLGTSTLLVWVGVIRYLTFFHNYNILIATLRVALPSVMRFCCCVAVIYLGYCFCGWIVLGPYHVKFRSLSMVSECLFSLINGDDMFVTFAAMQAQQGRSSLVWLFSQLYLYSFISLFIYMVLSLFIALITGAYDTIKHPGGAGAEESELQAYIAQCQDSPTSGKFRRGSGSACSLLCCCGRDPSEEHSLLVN
#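 Tetracycline-induced TRPML1-DL cells are seeded and incubated overnight before loading with a no-wash Ca2+ dye and quencher. Agonist activity is taken from the 110 s fluorescence read following compound pin-transfer on an FDSS, before EC80 54-4 challenge.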
# Sfp PPTase inh: blocks B. subtilis Sfp PPTase activity. Q9F4F7. Biochemical Sfp PPTase activity, qHTS. Potency, µM, for the others: max response, negative = inhibition, usual class: inhibitors. 3.5% of 310,000 active. AID 1490; active = well fitted inhibition curve with a large enough effect; inconclusive = small, poorly fitted or top-dose-only effect, or another doubt; inactive = no such curve, though single readings can be large or run the other way;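 note: the enzyme is Sfp with the accession as filed and its product quenches rhodamine fluorescence; potency is the fitted concentration of half-maximal effect; 0% = enzyme reaction without inhibitor and -100% = no enzyme wells; top concentration of the series not given in the record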
#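 Fluorescence-quenching assay: 15 nM Sfp-PPTase preincubated 15 min at room temperature with compound, then 5 uM rhodamine-CoA and 12.5 uM BHQ-2-labelled YbbR peptide added. Fluorescence (ex 525/em 598 nm) read at start and after 30 min; difference gives rate.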
# Menin-MLL FL inh: menin-MLL binding inhibition, fluorescein peptide; Fluorescence polarization, fluorescein-MLL peptide displacement from menin; FP activity change, % at 61.4 µM; AID 1766; 290,000 tested, under 10 active; inconclusive = falling polarisation curve, or a change in total fluorescence; inactive = total fluorescence flat and polarisation flat or rising; no compound was filed as active; the % refers to the polarisation; negative = inhibition;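 note: % of control where 0% means no effect; inhibitors lower the polarisation; unlabelled MLL peptide was the positive control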
# TRPML1 inh: inhibitors of human TRPML1 channel. Q9GZU1. TRPML1-inducible cells, Ca2+ dye fluorescence, FDSS; active compounds read low; inhibition of EC80 agonist-evoked calcium signal. activity change, negative = inhibition, % (no concentration beside the values). 0.02% of 390,000 active. AID 624415; in the data active means activity change below about -50%; inconclusive means about -30% to -50%; inactive means above about -30%;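 note: stimulus is agonist 54-4 at its EC80 concentration; % is set by controls: 0 for no effect and ±100 for the full control effect; compound concentration not given in the record; the text of the record puts the active cut at -80%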
#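 Calcium fluorescence in TRPML1-DL cells induced overnight with Tet: a 110 s read after compound pin addition, then a 110 s antagonist read after challenge with 54-4 at 4 uM final (EC80).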
# TRPV1 PAM: human TRPV1 potentiation. potentiation, % at 8.33 µM. TRPV1-expressing cells, Fluo-8 calcium influx, capsaicin EC20 potentiation; host cell line not named in the record; control for the full effect not named in the record. Q8NER1. 0.02% of 320,000 active; active means potentiation above 80%; inconclusive means 30% to 80%; inactive means below 30%; note: 0% is about no effect
#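 TRPV1-expressing cells were cultured overnight at 35.5C and loaded with Fluo-8 calcium dye for 40 to 90 min at room temperature. After a 10 s baseline, compound was added and calcium influx was read kinetically for 3 min (ex 480/em 520 nm).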
# PINK1 expr mod: PINK1 expression modulation. Potency, µM (series often up to 76.6 µM), inactives show at the top dose activation (PINK1 increase), usual class: activators. AID 624263. PINK1 immunofluorescence, high-content cytometry, 24 h. 0.2% of 410,000 active; active = well fitted activation curve with a large enough effect; inconclusive = small, poorly fitted or top-dose-only effect; inactive = flat fitted curve, though single readings scatter; cell line not stated here;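 note: potency is the fitted concentration of half-maximal effect; % of control where 0% means no effect; nearly all actives have a fitted effect of over 65% in size; a mitochondrial uncoupler was the plate control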
#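 PINK1 protein, normally rapidly degraded, was detected by immunofluorescence after 24 hour compound treatment of a stable cell line. Titration data (5 concentrations) came from laser-scanning cytometry, with CCCP-treated wells as controls.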
# * hit, by the source's call; ? = inconclusive; . = no result given; & = joins results of further samples; [ ] = remark or other dose. This is a random part of the collection. About 4.4% of those tested had a hit in this group.
SMILES,ClpP mod,TRPML1 ag,Sfp PPTase inh,Menin-MLL FL inh,TRPML1 inh,TRPV1 PAM,PINK1 expr mod
Cc1cccc2c(=O)c(C(=O)N3CCCCCC3)c[nH]c12,-12.7%,-0.7,6.8%,2.7,13.7,-2.0,-0.8%
Cc1ccc2c(c1)C1C[N+](C)(CC(=O)c3ccccc3)CCC1N2C(=O)c1ccccc1Cl (stereo not given),-0.5%,0.5,.,.,-18.2,.,-1.1%
Nc1c(C(=O)O)cnn1-c1ccccc1,.,0.7,15.3%,-0.4,-25.1,5.5,-1.3%
CN(C(=O)COC(=O)COc1ccccc1Cc1ccccc1)c1ccccc1,.,4.7,.,.,32.7,?,0.0%
CCS(=O)(=O)c1nc(S(=O)(=O)c2ccc(Cl)cc2)c(NCc2ccccc2Cl)s1,-3.0%,0.3,.,.,-5.2,.,3.2%
COc1ccc(-c2oc(=O)c3cc(OC)c(OC)cc3c2/C=C/c2ccc(OC(C)=O)cc2)cc1,4.1%,-0.3,.,.,-5.0,.,0.7%
O=C1NC2(CCCCC2)CO1,-0.2%,-0.4,11.4%,1.7,-5.2,8.3,0.3%
CNC(=S)NNC(=O)c1ccc(=O)n(Cc2cccc(C(F)(F)F)c2)c1,.,0.1,22.1%,1.3,-6.9,12.6,0.6%
COC(=O)Nc1ccc(S(=O)(=O)N2CCN(C)CC2)cc1,0.9%,-0.9,24.6%,-1.7,23.5,0.3,-2.0%
Clc1ccc(-c2ccn[nH]2)cc1,2.9%,-0.3,-16.3%,4.5,-15.3,4.7,1.2%
CCCN1C(=O)/C(=C\C=C2/Sc3ccccc3N2CC)SC1=S,.,.,-13.6%,?,.,0.4,.
O=C(c1cc2cc(Cl)ccc2[nH]1)N1CCN(Cc2ccc3c(c2)OCO3)CC1,-6.2%,0.7,-8.3%,11.5,1.3,-4.1,5.2%
Cc1cc(S(=O)(=O)N2CCCC(N3CCOCC3)C2)c(C)cc1Cl (stereo not given),-0.3%,-1.5,3.7%,0.9,-5.2,-2.3,0.1%
CC(C)=CCc1c(O)cc2oc3c(CC=C(C)C)c(O)c(O)c(CC=C(C)C)c3c(=O)c2c1O,-3.7%,1.0,-4.9%,8.8,48.6,28.8,?
CCOC(=O)C(C)S(=O)(=O)c1ccc(C(F)(F)F)cn1 (stereo not given),1.0%,0.6,15.5%,2.3,0.1,12.8,-0.3%
N#Cc1ccccc1NC(=O)CN1CCOCC1,0.8%,-0.5,18.0%,0.1,-5.0,6.7,-0.2%
COc1cccc(Nc2ncc3nc(C)c(=O)n(C4CC4)c3n2)c1,.,.,26.9%,6.0,.,.,-0.4%
CCOC(=O)c1c(-c2ccc(Cl)cc2)csc1NC(=O)CNCc1ccco1,-8.1%,2.2,50.1µM*,1.3,-7.4,4.1,1.0%
COc1ccccc1N1CCN(C(=O)CSc2nnc(-c3ccoc3C)o2)CC1,-1.2%,-0.6,7.1%,0.8,12.6,-1.4,-0.1%
CCOC(=O)C1CCCCN1C(=O)c1cc2ccc(OC)cc2c2cc(OC)c(OC)cc12 (stereo not given),?,1.1,.,.,-10.7,.,-0.4%
O=C(c1cnn(-c2nc3ccccc3s2)c1)c1ccccc1O,-2.1%,2.6,14.5%,0.3,7.7,3.3,1.1%
CC(OC(=O)Cc1coc2cc3c(cc12)CCC3)C(=O)NC(N)=O (stereo not given),.,1.4,-13.4%,4.0,3.1,-6.4,2.8%
O=C(Nc1ccccc1)c1cnc(-c2ccccc2)nc1-c1ccccc1,30.1%,-0.7,16.7%,6.9,2.4,?,?
Cc1ccnc2nc(C(=O)OCC(=O)c3ccc(NC(=O)CC(C)C)cc3)nn12,.,-0.5,.,.,-0.2,.,1.0%
COc1ccc(CCN2C(=O)CC(NNC(=O)c3ccc(F)cc3)C2=O)cc1OC (stereo not given),1.2%,1.2,11.3%,4.0,-7.9,19.0,-0.1%
O=C(NNC(=O)c1cc(-c2ccccc2)nc2ccccc12)c1csc(N2CCOCC2)n1,-2.1%,-1.0,.,.,-3.6,-1.4,3.9%
COc1ccc(N(C(=O)C(C)C)S(=O)(=O)c2ccc3ccccc3c2)cc1,-12.2%,1.6,8.4%,10.9,34.4,0.0,1.3%
CC(=O)N1N=C(c2cccc([N+](=O)[O-])c2)OC1c1ccc(Cl)cc1Cl (stereo not given),1.2%,-0.8,-7.1%,2.6,13.5,-8.7,-0.9%
CCN(CC)CCCNC(=O)C1CCN(S(=O)(=O)CC)CC1,-2.1%,0.0,.,.,12.0,.,2.5%
C/C(=N\Nc1ccc([N+](=O)[O-])cc1)c1cccc(N)c1,-1.1%,1.0,-7.3%,22.1,-9.9,6.5,-3.6%
CCCN1Cc2cccc(C(=O)Nc3ccc(S(=O)(=O)N4CCCCCC4)cc3)c2C1=O,-0.1%,-0.3,15.1%,1.7,-4.8,-3.0,16.5%[38.3 µM]
O=C(Nc1ccccc1)N1CC[C@@]2(CCCN(C(=O)c3cc(C(F)(F)F)cc(C(F)(F)F)c3)C2)C1,.,.,-3.6%,-0.2,.,.,-0.4%
CC1=NN(C(N)=S)C(=O)C1N=Nc1cc(Cl)ccc1Cl (stereo not given),.,2.0,?,-8.7,-15.9,-2.7,5.8%
COc1ccc(NC(=O)N(C)[C@H]2C[C@H]3c4[nH]c5ccc(-c6ccc(OC)cc6)cc5c4CCN3C[C@H]2[C@H](C)O)cc1,-21.4%,-0.3,.,.,32.2,.,?
NC(=O)NCC1CC1,-2.3%,-0.6,25.0%&7.6%,3.4&0.2,-10.2,1.1,1.5%
Cc1ccnc2nc(C(=O)OCC(=O)N(Cc3ccccc3)C(C)C)nn12,1.0%,-0.8,.,.,-10.4,.,0.4%
Cc1ccc(S(=O)(=O)N2CC(C)N(C(=O)N3CCOCC3)C2C)cc1 (stereo not given),-0.5%,?,13.9%,-1.5,-21.7,4.3,2.9%
COc1ccc(C(CNC(=O)c2cccc(S(=O)(=O)N3CCOCC3)c2)N2CCCC2)cc1 (stereo not given),-2.7%,2.2,.,.,18.7,3.9,0.4%
COc1ccc(CCNC(=O)c2c(O)c3ccccc3[nH]c2=O)cc1OC,-0.1%,-1.4,14.4%,-1.2,5.3,13.2,6.4%
COc1ccccc1NC(=S)N1CCC(c2nc3cc(C)c(C)cc3[nH]2)CC1,0.3%,-0.5,6.7%,1.7,30.8,-0.2,-4.6%[38.3 µM]

# Given with tabs: entries from further up
mol	ClpP mod	TRPML1 ag	Sfp PPTase inh	Menin-MLL FL inh	TRPML1 inh	TRPV1 PAM	PINK1 expr mod
COc1ccc(CCNC(=O)c2c(O)c3ccccc3[nH]c2=O)cc1OC	-0.1%	-1.4	14.4%	-1.2	5.3	13.2	6.4%
CC1=NN(C(N)=S)C(=O)C1N=Nc1cc(Cl)ccc1Cl (stereo not given)	.	2.0	?	-8.7	-15.9	-2.7	5.8%
COc1ccc(C(CNC(=O)c2cccc(S(=O)(=O)N3CCOCC3)c2)N2CCCC2)cc1 (stereo not given)	-2.7%	2.2	.	.	18.7	3.9	0.4%

# (next part)
SMILES,ClpP mod,TRPML1 ag,Sfp PPTase inh,Menin-MLL FL inh,TRPML1 inh,TRPV1 PAM,PINK1 expr mod
COc1ccc(CNC(=O)c2cc3c(=O)n4ccccc4nc3n(CC3CCCO3)c2=N)cc1 (stereo not given),?,0.0,2.3%,17.5,2.3,22.5,4.8%[38.3 µM]
CCCCN1CCNC[C@@H]1c1ccccc1,-0.3%,0.1,.,.,36.3,-2.3,-0.2%
COc1ccc(CCN(C(=O)c2ccco2)C(C(=O)NC2CCCC2)c2ccncc2)cc1OC (stereo not given),.,-0.3,12.1%,?,5.1,-4.9,-1.6%
Cc1cc(C(=O)c2ccccc2)c(NC(=O)CN2CCOCC2)s1,1.1%,0.1,17.1%,6.4,2.1,3.2,7.4%
CC(C)Cn1cnc2c(SCCc3ccccc3)nc(N)nc21,.,-0.3,.,.,-8.0,.,1.3%
COc1ccc(NC(=O)COc2cccc(-n3cnnn3)c2)cc1,.,0.0,10.9%,.,28.9,-7.0,1.9%
Cc1ccc(Nc2c(-c3ccc(N4CCOCC4)cc3)nc3c(C)cccn23)cc1,4.1%,3.4,.,.,46.2,.,-2.1%
COc1cc(NC(=S)NCc2ccco2)c(OC)cc1Cl,.,-1.1,-4.5%,-0.3,-2.5,-8.0,-0.2%
COC(=O)C1CCN(C(c2cc(OC)c(OC)c(OC)c2)c2sc3nc(C)nn3c2O)CC1 (stereo not given),2.5%,-0.9,17.6%,1.0,-8.5,3.3,0.6%
CCN(CC)C(=O)c1cccc(-c2csc(C(C)(O)c3ccc(OC)cc3)n2)c1 (stereo not given),2.0%,-0.5,.,.,.,.,3.0%
O=C1c2ccc(Cl)cc2S(=O)(=O)c2cccc(C(=O)N3CCN(c4ncc(Br)cn4)CC3)c21,3.1%,-0.6,.,.,-5.9,2.6,2.0%
O=C(Nc1nc(-c2cc(F)ccc2F)cs1)c1ccccn1,.,0.6,-1.7%,0.3,-6.1,5.0,3.0%
CCc1cccc(NC(=O)C2CCN(S(=O)(=O)c3ccc4[nH]c(=O)ccc4c3)CC2)c1,1.7%,-0.2,-0.8%,-1.1,-4.2,2.5,0.7%
Cc1cc(NC(=O)COC(=O)c2ccc(S(=O)(=O)N3CCCC3)cc2)no1,2.1%,4.0,25.4%,-1.1,3.9,12.7,0.7%
Cc1ccc(-c2ccc(CCC(=O)O)n2CC(=O)O)cc1,?,1.0,70.8µM*,?,-17.1,-2.7,.
CC1CCN(Cc2c(C(=O)N/N=C/c3cc(Cl)ccc3O)nnn2-c2nonc2N)CC1,.,0.4,9.1%,8.8,-11.5,-3.6,1.0%
CCCS(=O)(=O)N1CCCC(C(=O)NCCCN2CCN(c3ccccc3F)CC2)C1 (stereo not given),1.7%,-0.7,16.0%,-0.7,0.6,0.1,-0.1%
CN(C)c1ccc(/C=N/NC(=O)CCCCCNC(=O)c2ccccc2)cc1,.,1.8,0.6%,2.9,7.7,12.6,-1.4%
Cc1oc2cc(O)ccc2c(=O)c1-c1nncn1-c1ccccc1,.,2.7,19.4%,?,-17.2,9.5,3.8%
Cc1ccc(-n2c(SCC(=O)Nc3c(C)cccc3C)nc(O)c(C)c2=O)cc1,1.4%,-0.4,.,.,-11.3,.,0.5%
CC(=O)c1ccc(NC(=O)CC2Oc3ccc(C)cc3NC2=O)cc1 (stereo not given),-0.5%,-0.2,.,.,15.5,.,1.8%

# Screens (PubChem BioAssay)
